# High-throughput results: PubChem BioAssay, SRMLSC
# H5N1 CPE: MDCK cell protection from H5N1 avian flu | cytopathic effect, luminescence, 72 h; active compounds read high; no value below 0 was filed and about half of the inactive calls have no number; reference of the scale not given here | inhibition, % at 50 µM | hit rate 0.07% among 96,000; in the data active means inhibition above about 25%
# An asterisk follows results filed as active; i = inactive.
SMILES,H5N1 CPE
COc1cc(/C=C/C(=O)O)cc(S(=O)(=O)N(C)CCO)c1OC,0.7
Cc1cc(/C=N\O)c(C)n1-c1ccncc1,0.2
CCOC(=O)CNC(=O)CSc1nc(C)cc(C)c1C#N,1.2
CN(C)C(=O)c1ccc(COc2ccccc2Br)o1,i
O=c1cc(-c2ccccc2)nc2nc(-c3ccco3)[nH]n12,0.2
Cc1ccc(CS(=O)(=O)CCC(=O)NCC2CCCO2)cc1 (stereo unspecified),i
CCOCc1nnc(NC(=O)CSc2ccccc2)s1,0.6
Cc1cc(NC(=O)CCC(=O)N(C2CC2)C2(C(=O)NC3CCCC3)CCC(C)CC2)no1 (stereo unspecified),i
CCOC(=O)N1CCN(C(=O)c2ccc3c(=O)n(CCC4=CCCCC4)c(=O)[nH]c3c2)CC1,i
COc1ccc(NC(=O)c2oc3ccccc3c2NC(=O)c2ccc3c(c2)OCO3)cc1,i
COc1ccc(N2CCN(Cc3nc4c(c(=O)n(C)c(=O)n4C)n3Cc3cccc(C)c3)CC2)cc1,2.2
CC(C)CNC(=S)NNC(=O)c1ccc2c(c1)OCO2,0.6
CC(C)N(C(=O)CSc1nc2c([nH]1)c(=O)n(C)c(=O)n2C)c1ccccc1,1.6
CCCN(CC(=O)c1cc(C)n(C)c1C)S(=O)(=O)c1cccc(C(F)(F)F)c1,i
Cc1ccc(-c2nc3ncccc3o2)cc1NC(=O)c1sc2ccccc2c1Cl,0.1
Cc1ccc(Nc2c3c(nc4ncnn24)CC(C)CC3)cc1 (stereo unspecified),2.6
CS(=O)(=O)N1CCC(C(=O)NCCN2CCN(Cc3ccccc3)CC2)CC1,0.6
Cc1cc(C)n(-c2nncn2NC(=O)c2ccc(Cl)cc2O)n1,0.1
COc1ccccc1Nc1ncccc1C(=O)NCc1ccccc1,0.8
Nc1nonc1C(=O)OCC(=O)N1CCCCC1,0.1
COc1cccc(C2CC(c3cccs3)=NN2C(=O)CSC2=NN3CCCC(=O)N=C3S2)c1OC (stereo unspecified),3.1
O=C(OCc1cccc2ccccc12)c1ccc2c(=O)[nH]c(CN3CCOCC3)nc2c1,i
COc1ccc(CC(=O)Nc2ccc3c(c2)CCC3)cc1S(=O)(=O)N1CCOCC1,i
Cn1nc(C(=O)NC2=NCCS2)ccc1=O,1.6
CCCSc1nc(O)c(CC)c(=O)n1C(C)CC (stereo unspecified),0.6

# Gathered by group, the compounds so far containing an aryl methoxy group
SMILES,H5N1 CPE
COc1cc(/C=C/C(=O)O)cc(S(=O)(=O)N(C)CCO)c1OC,0.7
COc1ccc(NC(=O)c2oc3ccccc3c2NC(=O)c2ccc3c(c2)OCO3)cc1,i
COc1ccc(N2CCN(Cc3nc4c(c(=O)n(C)c(=O)n4C)n3Cc3cccc(C)c3)CC2)cc1,2.2
COc1ccccc1Nc1ncccc1C(=O)NCc1ccccc1,0.8
COc1cccc(C2CC(c3cccs3)=NN2C(=O)CSC2=NN3CCCC(=O)N=C3S2)c1OC (stereo unspecified),3.1
COc1ccc(CC(=O)Nc2ccc3c(c2)CCC3)cc1S(=O)(=O)N1CCOCC1,i

# The list continues.
SMILES,H5N1 CPE
CC1(C)Cc2c(sc3c2C(=O)N(c2ccccc2)C2=NCCN23)CS1,1.4
CN1CCN(c2ncnc3ccc(Br)cc23)CC1,2.6
CCCCC(=O)Nc1cccc(-c2nc3ncccc3o2)c1,i
Clc1ccc(Br)cc1-c1nc(-c2ccncc2)no1,1.9
CCC1(C)Cc2ccccc2/C(=C/C(=O)N2CCCCC2)N1 (stereo unspecified),0.4
C/C(=N\Nc1nc(C)cc(-c2ccccc2)n1)c1ccc(C)o1,0.2
CC1(C)CC(=O)c2cnc(NC(=O)c3ccco3)nc2C1,9.2
COC(=O)C(C(=O)OC)c1ccccc1[N+](=O)[O-],i
COc1cccc(C(=O)NC(=S)Nc2ccc(Cl)c(C(=O)O)c2)c1,i
CCC(=O)Nc1ccc(-c2cc(-c3ccccc3)nc(-c3ccc(NC(=O)CC)cc3)n2)cc1,i
COc1ccccc1-c1nn2c(=O)cc(C)nc2s1,i
CCOC(=O)CNC(=O)Nc1nnc(-c2ccc(OCC)cc2)o1,0.1
Cc1cc(NS(=O)(=O)N(C)C)ccc1C(C)C,4.2
Cc1ccc(C(=O)O/N=C2\CCCc3ccccc32)cc1,0.3
O=C(NNC(=O)c1sc2cccc(Cl)c2c1Cl)Nc1ccccc1,i
Cn1nnc(C(O)CNCc2cccs2)n1 (stereo unspecified),i
Cc1cc(C)cc(Oc2nc(-c3ccccc3)cc(C)c2S(C)(=O)=O)c1,1.5
COc1cc2nc(C3CCC3)n(NC(=O)C(OC(C)=O)c3ccccc3)c(=O)c2cc1OC (stereo unspecified),0.8
Cc1ccccc1-n1c(C)cc(/C=N/NC(=O)c2ccc(CN3CCOCC3)cc2)c1C,1.8
CCOc1ccc(OCc2ccc(C(=O)N3N=C(C(F)F)CC3(O)C(F)F)o2)cc1 (stereo unspecified),i
CCOc1ccc(N2C(=O)CN=C2Nc2ccccc2F)cc1,i
Cc1cccc(N2C(=O)c3cccc4c(N(C)CCO)ccc(c34)C2=O)c1,2.4
N#CC1=C(N)SC(N)=C(C#N)C1c1ccoc1,0.7
CC(=O)N1CCN(S(=O)(=O)c2ccccc2)C1c1ccccc1 (stereo unspecified),1.4
Cn1c(C(=O)O)c(CC(=O)NCC2COc3ccccc3O2)c2ccccc21 (stereo unspecified),0.4
# Continuation:
SMILES,H5N1 CPE
COc1ccc(OC)c(NC(=O)CSc2nnc(-c3ccco3)n2-c2ccc(C(=O)O)cc2)c1,0.1
CCCCOC(=O)C1C2C=CC3(CN(CCc4ccccc4)C(=O)C13)O2 (stereo unspecified),1.1
Cc1ccc(S(=O)(=O)CCC(=O)NCc2ccco2)cc1,0.6
Cc1ccc(CC2CC(=O)N(c3cc(C)on3)C2=O)cc1 (stereo unspecified),0.3
Cn1c(SCc2nn[nH]n2)nc2c1c(=O)n(Cc1ccccc1Cl)c(=O)n2C,0.3
COC(=O)c1cc(NC(=O)C2CC2)cc(C(=O)OC)c1,i
Cn1c(-c2sc3cc(C(F)(F)F)cnc3c2-c2ccccc2)n[nH]c1=S,0.7
c1cc(-c2nnc3sc(C4CCCCC4)nn23)ccn1,8.6
CSCc1cc(N2CCOCC2)nc(SCc2ccc(Cl)cc2Cl)n1,i
O=c1c2c3c(sc2ncn1/N=C/c1ccc([N+](=O)[O-])o1)CCCC3,i
CC1(C)Cc2c(sc3c2c2ncnn2c2nnc(SCC(=O)NCc4ccco4)n32)CO1,12
COC(=O)c1ccccc1N1C(=O)[C@@H]2C(c3ccc(F)cc3)=NO[C@@H]2C1=O,i
Cc1sc2nc(SC(C)C)nc(N)c2c1C,0.6
N#Cc1c(SCC(N)=O)nsc1SCc1ccc(Cl)cc1,i
CCOC(=O)N1CCC(Nc2c(NCCCN3CCN(CC)CC3)c(=O)c2=O)CC1,i
Cc1sc2nc3c4ccccc4c(NCc4ccco4)nn3c(=O)c2c1C,27*
CCOc1ccc(N(Cc2cc3ccc(C)cc3[nH]c2=O)C(=O)COC)cc1,0.8
O=C(Nc1ccccc1Cl)c1cnccn1,1.2
CC(=O)Nc1ccc(NC(=O)CSc2ccc(C)cc2)cc1,i
Cc1noc(C)c1S(=O)(=O)N1CCCC(C(=O)NCc2ccccn2)C1 (stereo unspecified),i
CSCCOC(=O)c1[nH]c2c(c1C)C(=O)CC(c1ccco1)C2 (stereo unspecified),i
COc1ccc(N(CC(=O)N2CCc3ccccc3C2)S(=O)(=O)c2c(C)[nH]c(=O)[nH]c2=O)cc1,0.6
Cc1cc(C)c(OCC(=O)Nc2ccc3c(c2)OCO3)cc1C,i
COc1ccc(-c2n[nH]c(=S)n2CC(C)C)cc1,1.0
c1csc(CNc2nc3ccccc3n2CCN2CCOCC2)c1,i

# A second format for some results above:
canonical_smiles	H5N1 CPE
CSCc1cc(N2CCOCC2)nc(SCc2ccc(Cl)cc2Cl)n1	i
Cn1c(-c2sc3cc(C(F)(F)F)cnc3c2-c2ccccc2)n[nH]c1=S	0.7
CCOc1ccc(N(Cc2cc3ccc(C)cc3[nH]c2=O)C(=O)COC)cc1	0.8
c1cc(-c2nnc3sc(C4CCCCC4)nn23)ccn1	8.6
COc1ccc(OC)c(NC(=O)CSc2nnc(-c3ccco3)n2-c2ccc(C(=O)O)cc2)c1	0.1
O=C(Nc1ccccc1Cl)c1cnccn1	1.2
COC(=O)c1cc(NC(=O)C2CC2)cc(C(=O)OC)c1	i

# Later entries.
SMILES,H5N1 CPE
Cc1nc2c(cnn2-c2ccc(Cl)cc2)c(=O)n1-c1ccc(N2CCC(C)CC2)cc1,1.1
O=C(CN(C(=O)CNS(=O)(=O)c1ccccc1)C1CCCC1)NCC1CCCO1 (stereo unspecified),0.2
CCOc1ccc(C(=O)NCC(=O)OCC(=O)Nc2ccccc2OCC)cc1,i
COc1nc(OC)nc(N2CCC(C(=O)Nc3cccc4ccccc34)CC2)n1,i
CN(C)CCCOC(=O)c1ccc(Br)cc1,2.9
CC1CCCN(Cc2nc3c(c(=O)n(C)c(=O)n3C)n2CCCc2ccccc2)C1 (stereo unspecified),1.1
O=C(CSc1nnc(CNC(=O)c2c(F)cccc2Cl)o1)Nc1ccccc1,i
C=CCNC(=O)C1CCN(c2nc(C)cc(-c3ccccc3)n2)CC1,i
CCCCCn1c(=O)c(C(=O)Nc2c(C)n(C)n(-c3ccccc3)c2=O)c(O)c2ccccc21,34*
COc1ccc(CN(CC(=O)NCC2CCCO2)C(=O)CCC(=O)Nc2cc(C)on2)cc1 (stereo unspecified),i
CC(C)c1nc2sc3c(NCc4ccccc4)ncnc3c2c2c1COC(C)(C)C2,i
COc1ccc(Br)cc1-c1noc(-c2ccccc2F)n1,i
O=C1c2ccccc2S(=O)(=O)N1Cc1cc(=O)n2ccsc2n1,i
CCCCc1ccc(S(=O)(=O)Nc2cc(C)on2)cc1,i
CNC(=O)c1sc(-c2ccc(Cl)cc2)nc1C,i
O=C(CCn1c(=O)c2ccccc2n(CC(=O)NC2CCCC2)c1=O)NCCc1ccc(Cl)cc1,i
O=C(c1ccc(C(=O)N2CCCc3ccccc32)s1)N1CCCc2ccccc21,i
O=C(Nc1c(Cl)cccc1Cl)c1cc(=O)n(Cc2ccccc2)c(=O)[nH]1,0.4
OCCCNCc1cccc2ccccc12,1.1
NC(=O)c1ccccc1NC(=O)/C=C/C(=O)O,i
O=C1c2[nH]nc(-c3ccccc3O)c2C(c2ccc(F)cc2)N1CC1CCCO1 (stereo unspecified),1.9
COc1ccccc1-c1csc(Cc2nnc3n2CCCCC3)n1,0.2
CN(Cc1ccncc1)C1CC(=O)N(c2ccc(Cl)cc2)C1=O (stereo unspecified),0.3
CC(=O)c1cccc(NC(=O)CCS(=O)(=O)c2cccc3nonc23)c1,0.7
OCCOCCNc1ncnc2nc[nH]c12,1.2

# Structures shown so far containing a cyano group, in the order listed:
SMILES,H5N1 CPE
CCOC(=O)CNC(=O)CSc1nc(C)cc(C)c1C#N,1.2
N#CC1=C(N)SC(N)=C(C#N)C1c1ccoc1,0.7
N#Cc1c(SCC(N)=O)nsc1SCc1ccc(Cl)cc1,i

# Quoted at random: two entries already listed, in no set order.
SMILES,H5N1 CPE
Cc1cc(C)cc(Oc2nc(-c3ccccc3)cc(C)c2S(C)(=O)=O)c1,1.5
O=C1c2ccccc2S(=O)(=O)N1Cc1cc(=O)n2ccsc2n1,i

# (next part)
SMILES,H5N1 CPE
C(=N\n1cnnc1)/c1ccc2c(c1)OCCO2,0.6
Cc1cccc(NS(=O)(=O)c2ccc3c(c2)OCCO3)c1,0.0
Cc1cccc(-c2nc(CS(=O)CC(=O)NCC3CCCO3)c(C)o2)c1 (stereo unspecified),i
CC1CC(C)CN(S(=O)(=O)c2ccc(F)c(C(=O)Nc3ccc(Cl)cc3F)c2)C1 (stereo unspecified),i
CCCC(=O)c1cc2cc(Cl)ccc2oc1=O,2.5
COc1ccc(CNC(=O)CSc2nc3nc(C)cc(C)n3n2)cc1,0.7
CN1CCC(NC(=O)c2cccs2)CC1,1.1
Cc1ccc2c(c1)N(CC(=O)N(Cc1ccc3c(c1)OCO3)CC1CCCO1)C(=O)C(C)O2 (stereo unspecified),1.1
CCOc1ccc(N2C(=O)CC(N3CCc4ccccc43)C2=O)cc1 (stereo unspecified),0.4
CCC(C)c1c(O)nc(SCC(=O)N2CCOCC2)[nH]c1=O (stereo unspecified),i
Cc1ccccc1-c1nc2ccccc2o1,2.5
COc1cc(C(=O)N2CCC(NC(=O)C(Cc3ccc(C)cc3)NC(C)=O)CC2)cc(OC)c1OC (stereo unspecified),i
Cc1ccc(NC(=O)C(=O)NC(C)C2COc3ccccc3O2)cc1 (stereo unspecified),i
CCOc1ccccc1NC1c2ccccc2C(=O)N1c1ccc(C)cn1 (stereo unspecified),0.4
O=C(CSc1nc2ccccc2s1)Nc1ncccn1,1.6
Cc1nc(SCC(=O)N2CCC(C(N)=O)CC2)n[nH]1,0.4
Cc1c(C(=O)Nc2ccc3c(c2)OCO3)sc2ncn(CC(=O)N3CC(C)CC(C)C3)c(=O)c12 (stereo unspecified),i
O=C1Nc2c(Br)cc(Br)cc2C1(O)N1CCOCC1 (stereo unspecified),i
CCOc1ncccc1C(=O)N1CCN(Cc2ccc3c(c2)OCO3)CC1,0.3
CC12C=CC3(CN(Cc4ccccc4)C(=O)C3C1C(=O)NC1CC1)O2 (stereo unspecified),i
COc1cc(C2NC(=O)NC(C)=C2C(=O)OCc2ccc(C)cc2)cc(OC)c1O (stereo unspecified),i
NC(=O)CSc1ncnc2c1cnn2Cc1ccccc1,i
COC(=O)c1cc(=O)nc2sc(-c3ccc(F)cc3)nn12,i
CN(c1cccc(NS(=O)(=O)c2cccs2)c1)S(C)(=O)=O,0.1
CC(C)NC(=O)C1CCN(Cc2cnn(-c3ccccc3)c2-n2cccc2)CC1,1.3
# More compounds follow.
SMILES,H5N1 CPE
COc1cccc(Nc2c(F)c(OC)c(F)c(F)c2C(=O)O)c1,i
Nn1cc(-c2ccccc2)nc1SCC(=O)NCCN1C(=O)CSC1=O,0.7
COc1c(C(C)C)cc(NC(C)=O)cc1C(C)C,87*
O=C1C(Cc2ccccc2)SC(=Nc2ccccc2)N1c1ccccc1 (stereo unspecified),i
CC1(C)CC(=O)C=C(Nc2cccc(O)c2)C1,0.5
CC(C)COC(=O)CCn1[nH]c(=O)c2ccccc2c1=O,0.1
CCCCOC(=O)Nc1cc(Cl)ccc1C,i
O=C(COC(=O)CCC(=O)c1cccs1)Nc1ccc(S(=O)(=O)N2CCOCC2)cc1,0.7
Nn1c(SCc2nc3ccccc3[nH]2)nnc1-c1ccccc1,i
CCN(CC)C(=O)c1ccc(C)c(Br)c1,0.1

# This is a subset (hit frequency here may not be typical).
